Bead autofluor: compound fluorescence in toxin protease inhibitor counterscreen; compound autofluorescence counterscreen, microsphere flow cytometry; stronger effect = higher value; actives 3.1% (n = 360,000); fluorescence intensity (concentration not given with the values);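 active = at least 3 SD above the mean of all compounds, about 16000 in these data; inconclusive = too few beads counted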;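 also: 100 nL of 1 mM stock went into each well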
Sa RN4220 lethal: growth inhibition of S. aureus RN4220, primary screen, OD600. 16 h. inhibition, % (concentration not given with the values). actives 0.33% (n = 330,000);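 active = z-score of -3 or lower and OD600 up to 0.18 on both plates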;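 also: plate controls were untreated cells for no effect and reference antibiotic for full effect; stock transfer was 100 nL into about 80 µL; one replicate is shown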
PrP UTR inh: inhibition of PrP 5' UTR reporter expression; AID 488862, 2010; cell-based PrP 5' UTR mRNA reporter, plate reader; actives 0.35% (n = 340,000); inhibition, % (concentration not given with the values);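 active = every replicate at 50% or more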;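 also: 0 = median of the neutral control wells; tested in H4 reporter cells; numbers are from one replicate; inactives centre near -14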
Sa ugtP lethal: growth inhibition of ugtP-null S. aureus, primary screen, RN4220 ugtP deletion, OD600 | 16 h; some inactives read as strong as hits | growth inhibition, % (test concentration not listed) | actives 0.54% (n = 330,000);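 active = z-score under -3 and OD600 up to 0.15 on both plates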;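 also: plate controls were untreated wells for no effect and antibiotic for full effect; wells of about 80 µL received 100 nL stock; the first replicate is given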
BJeLR lethal: MLPCN primary cell-based screen for lethality selective to Ras in HRASV12 cells. BJeLR (HRASV12) viability, CellTiter-Glo ATP luminescence, 48 h; reference of the scale not given here. actives 0.17% (n = 300,000). AID 1554, 2009. inhibition, % (no concentration beside the values);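 active = replicate mean above 50%; inconclusive = above 50% but judged a plate artefact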;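 also: 50 nL library stock added to about 25 µL; numbers are from one replicate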
Mtb hypoxia inh: PubChem AID 1159583. actives 0.1% (n = 300,000). fluorescence inhibition, % (concentration not given with the values). M. tuberculosis hypoxia-regulated fluorescent reporter, fluorescence;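 active = 35 to 45% if threefold the growth effect, above 45% if 1.5-fold the growth effect; inactive = the rest, general growth blockers included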;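 also: wells of about 50 µL received 100 nL stock; 0% = vehicle wells and 100% = reference inhibitor wells; whole bacteria with a GFP reporter of the hypoxia response; strong numbers were not always called active; many hits fall short of the cut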
Mtb hypoxia inh growth: second read-out of Mtb hypoxia inh, no call of its own (marks repeat the call); growth inhibition, %; measured here: M. tuberculosis growth (absorbance);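 0% = vehicle and 100% = reference antibiotic; read after six days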
* = called active by the depositor; ? = inconclusive; . = no result given.

| entry | canonical_smiles | Mtb hypoxia inh growth | Sa ugtP lethal | BJeLR lethal | Bead autofluor | Sa RN4220 lethal | Mtb hypoxia inh | PrP UTR inh |
| --- | --- | --- | --- | --- | --- | --- | --- | --- |
| 1 | Cc1ccc(Nc2nc3ccccc3s2)c(C)c1 | 10 | 3 | -4 | 2072 | -5.6 | 11 | -59 |
| 2 | O=S1(=O)C2CC3C=C[C@]2(CN1Cc1ccc(C(F)(F)F)cc1)O3 (some centres not stated) | 0 | 0 | . | . | 3.7 | 1 | . |
| 3 | COc1cccc(N2CC(C(=O)Nc3nnc(SCc4cccnc4)s3)CC2=O)c1 (configuration not stated) | -5 | -3 | 6 | 2619 | -2.5 | 6 | -16 |
| 4 | Cc1[nH]n(-c2ccccc2)c(=O)c1C=NN1C(=O)c2ccc3c4c(ccc(c24)C1=O)CC3 | -4 | 1 | . | . | 10 | 5 | . |
| 5 | COc1cccc(NC(=O)Cn2c3ccccc3c3nc4n(c(=O)c32)CCS4)c1 | 3 | 3 | 0 | 3929 | 12 | -8 | -15 |
| 6 | COc1ccc(OC)c(NC(=O)C2=C(C)Nc3ncnn3C2c2cccs2)c1 (configuration not stated) | 6 | 2 | 7 | 2717 | -9.7 | 16 | -14 |
| 7 | COc1ccccc1NC(=O)Cc1noc(CSc2cccc[n+]2[O-])n1 | . | 1 | 1 | 2684 | -0.1 | . | -30 |
| 8 | O=C(CCc1c[nH]c2ccccc12)NCc1cccc(Cl)c1 | 6 | -2 | -7 | 4207 | -6.1 | -8 | -11 |
| 9 | Cc1nonc1CN(C)C(=O)CC1C(=O)NCCN1Cc1c(F)cccc1Cl (configuration not stated) | 0 | 8 | -2 | 4081 | 7.5 | 11 | -22 |
| 10 | COc1cccc(C2CC(C(F)(F)F)n3nc(C(=O)NCc4cccnc4)cc3N2)c1 (configuration not stated) | 3 | 0 | -14 | 12536 | 0.4 | -5 | -15 |
| 11 | O=C(OCC#CCSc1nnc(-c2cccc3ccccc23)o1)c1ccco1 | . | -3 | -1 | 20284* | 4.9 | . | -64 |
| 12 | CCC1Oc2ccccc2N(CC(=O)NCc2cccs2)C1=O (configuration not stated) | 18 | 7 | -15 | 2557 | 6.4 | 17 | 1 |
| 13 | CCc1nnc(NC(=O)Cc2cc(OC)c(OC)c(OC)c2)s1 | 3 | -3 | 4 | 3334 | 1.4 | 3 | -16 |
| 14 | CC[N+]1(CC)CC2CCC(C)(C1)C2(C)C (configuration not stated) | 4 | -4 | -12 | 3133 | 4.0 | -1 | -19 |
| 15 | Cc1cc(C(=O)Cn2cc(C(F)(F)F)ccc2=O)c(C)n1-c1ccccc1 | 2 | 3 | 4 | 2153 | 3.8 | 6 | -13 |
| 16 | OCC1OC(OCCc2ccc(O)cc2)C(O)C(O)C1O (configuration not stated) | 6 | -9 | . | . | 3.1 | 4 | . |
| 17 | Cc1ccc(S(=O)(=O)NC(=O)Nn2c(C)nnc2C)cc1 | . | -6 | 1 | 4614 | -0.6 | . | -11 |
| 18 | CSc1ccccc1OCc1cc(C(=O)NC(C)c2cnn(C)c2)no1 (configuration not stated) | -1 | 5 | -11 | . | 2.4 | 0 | -42 |
| 19 | CCOc1ccccc1-c1nc2c(C(C)(C)C)nn(C)c2c(=O)[nH]1 | 6 | 5 | -13 | . | 8.2 | -3 | . |
| 20 | COc1cc2c(cc1OC)C(c1cc3ccccc3oc1=O)=NC(C)(C)C2 | -7 | -3 | -2 | 2465 | 9.7 | -9 | 0 |
| 21 | Clc1ccc(C=Cc2ccccn2)cc1 | 13 | 9 | . | 2896 | 11 | 25 | -84 |
| 22 | CCOc1cccc(CN2CCC(N3CCC(C(=O)NCC4CCCO4)CC3)CC2)c1 (configuration not stated) | 10 | 4 | -1 | 10339 | 0.5 | 5 | -14 |
| 23 | CC(=O)c1cccc(NC(=O)CSc2ccc(-c3sc(C)nc3C)nn2)c1 | 9 | -14 | -4 | 6747 | 3.5 | 2 | -5 |
| 24 | CC(=O)Oc1ccc(/C=C2/CCc3ccccc3C2=O)cc1 | 10 | 7 | 7 | 6143 | 4.7 | -2 | -68 |
| 25 | CCN(CC)S(=O)(=O)c1cccc(NC(=O)COC(=O)/C=C/c2ccco2)c1 | -2 | 11 | -12 | 8728 | 2.0 | 1 | -17 |
| 26 | CCOC(=O)N/N=C/c1cc(OC)c(O)c(OC)c1 | . | . | 0 | 2004 | . | . | -8 |
| 27 | CCN(CC(=O)Nc1ccccc1C(F)(F)F)C(=O)c1oc2ccc(OC)cc2c1C | 4 | 5 | -16 | 3833 | 8.4 | 10 | -42 |
| 28 | CN(C)c1ccnc2sc(C(N)=O)c(N)c12 | 7 | 18 | 7 | 5376 | 3.1 | -5 | 42 |
| 29 | O=C(CN1CCCc2ccccc21)NC(=O)NCc1ccccc1 | 5 | 3 | 3 | 4999 | 11 | 1 | 1 |
| 30 | Cn1c2ccc(F)cc2c2nnc(SCC(=O)Nc3cccc(O)c3)nc21 | -3 | 5 | -5 | . | 2.2 | 2 | 2 |
| 31 | Cc1cc(C(=O)N(C)CC(=O)Nc2cccc(F)c2)no1 | 1 | 0 | 7 | ? | 2.9 | 0 | -12 |
| 32 | CC(C)CCn1c(=O)c2sccc2n2c(CCCC(=O)N3CCN(c4ccccn4)CC3)nnc12 | 4 | 8 | -5 | 4990 | 4.4 | 8 | -5 |
| 33 | COc1sc(SC)cc1C=NNC(=O)c1ccncc1 | . | 1 | . | . | -0.1 | . | . |
| 34 | COCCCn1c(SCC(=O)Nc2ccc(NC(=O)c3ccco3)c(OC)c2)nc2ccccc2c1=O | . | -3 | -3 | 2453 | 0.1 | . | -14 |
| 35 | O=C(Nc1ncc(Cc2ccccc2Cl)s1)c1ccc(-c2cccc([N+](=O)[O-])c2)o1 | -2 | -16 | 18 | 2574 | 3.7 | 3 | -16 |
| 36 | CCOC(=O)C1(C(F)(F)F)N=C(C(F)(F)F)Nc2cc(C)c(C)cc21 (configuration not stated) | 7 | -6 | -14 | 2475 | 8.8 | 15 | -13 |
| 37 | C=CCNC(=O)/C(=C/c1cccc([N+](=O)[O-])c1)NC(=O)c1ccccc1 | -9 | 9 | . | 4018 | 4.7 | 3 | -20 |
| 38 | C/C(N)=C(/C#N)C(=O)CSc1nnc(NC(C)C)s1 | 6 | -7 | 0 | 12765 | 0.5 | 0 | -40 |
| 39 | O=C(CN1CCCCC1)N1CCN(c2ccccc2)CC1 | -2 | 11 | 6 | 3830 | -1.7 | -5 | -2 |
| 40 | Cn1c(CNC(=O)CNC(=O)Cc2ccccc2)cc(=O)n(C)c1=O | 6 | 5 | 0 | 5099 | 1.4 | 9 | -3 |

Results in BJeLR lethal, Sa RN4220 lethal and Sa ugtP lethal, for five of the compounds above:
entry	SMILES	BJeLR lethal	Sa RN4220 lethal	Sa ugtP lethal
2	O=S1(=O)C2CC3C=C[C@]2(CN1Cc1ccc(C(F)(F)F)cc1)O3 (some centres not stated)	.	3.7	0
3	COc1cccc(N2CC(C(=O)Nc3nnc(SCc4cccnc4)s3)CC2=O)c1 (configuration not stated)	6	-2.5	-3
4	Cc1[nH]n(-c2ccccc2)c(=O)c1C=NN1C(=O)c2ccc3c4c(ccc(c24)C1=O)CC3	.	10	1
5	COc1cccc(NC(=O)Cn2c3ccccc3c3nc4n(c(=O)c32)CCS4)c1	0	12	3
6	COc1ccc(OC)c(NC(=O)C2=C(C)Nc3ncnn3C2c2cccs2)c1 (configuration not stated)	7	-9.7	2

As entered above:
no. 30 | Sa ugtP lethal = 5
no. 31 | Sa RN4220 lethal = 2.9
no. 28 | Sa ugtP lethal = 18
no. 29 | Mtb hypoxia inh growth = 5
no. 25 | Sa ugtP lethal = 11
no. 37 | Mtb hypoxia inh growth = -9
no. 38 | PrP UTR inh = -40

Two entries from above, screen by screen:
35	O=C(Nc1ncc(Cc2ccccc2Cl)s1)c1ccc(-c2cccc([N+](=O)[O-])c2)o1
36	CCOC(=O)C1(C(F)(F)F)N=C(C(F)(F)F)Nc2cc(C)c(C)cc21 (configuration not stated)

Assay by compound	35	36
Mtb hypoxia inh growth	-2	7
Sa ugtP lethal	-16	-6
BJeLR lethal	18	-14
Bead autofluor	2574	2475
Sa RN4220 lethal	3.7	8.8
Mtb hypoxia inh	3	15
PrP UTR inh	-16	-13

The list goes on.
| entry | canonical_smiles | Mtb hypoxia inh growth | Sa ugtP lethal | BJeLR lethal | Bead autofluor | Sa RN4220 lethal | Mtb hypoxia inh | PrP UTR inh |
| --- | --- | --- | --- | --- | --- | --- | --- | --- |
| 41 | COC(=O)c1ccc(C2c3c(n[nH]c3C)C(=O)N2c2ccc(C)cc2)cc1 (configuration not stated) | 3 | 13 | 4 | 5265 | 7.5 | 8 | -13 |
| 42 | Cc1c(C(=O)O)sc2nc(C)n(C)c(=O)c12 | 2 | -8 | -5 | 8610 | 1.0 | -6 | -25 |
| 43 | Cc1cccc(CCNC(=O)C2CCC(=O)N(Cc3ccccc3F)C2)n1 (configuration not stated) | 1 | -4 | -3 | 6124 | 3.9 | 4 | -16 |
| 44 | Fc1ccc2c(c1)C(c1cccnc1)=NNC(c1cccs1)=N2 | 1 | -8 | -10 | 2822 | -0.7 | 10 | -11 |
| 45 | O=c1c2ccccc2ncn1-c1ccccc1C(F)(F)F | 3 | -2 | 15 | 2383 | 0.5 | 0 | -6 |
| 46 | Cc1nc2cc(Cl)ccc2n1CCO | 6 | 2 | -2 | 10641 | 2.6 | 2 | -47 |
| 47 | CN(C)C(=S)Nc1cccc(C(F)(F)F)c1 | 1 | 3 | -1 | 4527 | 3.4 | 2 | -17 |
| 48 | COc1ccc(-c2noc(C3CCCN(C(=O)c4cccc(C)c4)C3)n2)cc1 (configuration not stated) | 7 | 9 | -1 | 4215 | 3.5 | 2 | -17 |
| 49 | CN(C)C(CNC(=O)Nc1cccc(Cl)c1)c1cccnc1 (configuration not stated) | 8 | -5 | -2 | 3761 | 0.3 | 6 | -12 |
| 50 | ON=Cc1ccc(-c2ccccc2OC(F)(F)F)o1 | 3 | 3 | . | . | 7.9 | -6 | . |
| 51 | CN(CC(=O)Nc1ccc(OC(F)(F)F)cc1)C(=O)Cc1ccc2c(c1)CCC2 | 9 | -1 | . | 3924 | -6.4 | 1 | -18 |
| 52 | O=C(Nc1ccccc1N1CCOCC1)C1=NN(c2ccccc2)C(=O)CC1 | 4 | 1 | . | 6595 | 0.8 | -2 | -28 |
| 53 | COC(=O)C1=C(C)Nc2c(c(=O)n(C)c(=O)n2C)C1c1cccnc1 (configuration not stated) | 13 | 1 | 1 | 2885 | -8.0 | 13 | -11 |
| 54 | NCCCC[C@@H]1NC(=O)[C@H](CCC(=O)O)NC(=O)c2cc([N+](=O)[O-])cc(I)c2SC[C@@H](C(=O)NCC(N)=O)NC1=O | . | . | -7 | 4216 | . | . | -17 |
| 55 | COc1ccccc1/C=C(/C(=O)OCC(=O)Nc1ccc(N(C)C)cc1)c1ccccc1 | -1 | 4 | -5 | 1907 | 2.3 | 11 | -27 |
| 56 | CC1CCCC(NC(=O)COC(=O)COc2ccc(Br)cc2)C1C (configuration not stated) | 13 | 2 | . | 4135 | 7.8 | 8 | -3 |
| 57 | CC1C(Br)C(=O)NC(=O)N1Cc1ccccc1 (configuration not stated) | 8 | -7 | 9 | 3228 | -2.2 | 5 | -12 |
| 58 | CCOC(=O)c1c(C)n(C)c2ccc(OCC(O)CN3CCCCCC3)cc12 (configuration not stated) | 1 | 10 | 6 | 5964 | -2.1 | 6 | -11 |

Arranged by molar mass (smallest number first): part of the list above.
| entry | canonical_smiles | Mtb hypoxia inh growth | Sa ugtP lethal | BJeLR lethal | Bead autofluor | Sa RN4220 lethal | Mtb hypoxia inh | PrP UTR inh |
| --- | --- | --- | --- | --- | --- | --- | --- | --- |
| 50 | ON=Cc1ccc(-c2ccccc2OC(F)(F)F)o1 | 3 | 3 | . | . | 7.9 | -6 | . |
| 49 | CN(C)C(CNC(=O)Nc1cccc(Cl)c1)c1cccnc1 (configuration not stated) | 8 | -5 | -2 | 3761 | 0.3 | 6 | -12 |
| 44 | Fc1ccc2c(c1)C(c1cccnc1)=NNC(c1cccs1)=N2 | 1 | -8 | -10 | 2822 | -0.7 | 10 | -11 |
| 41 | COC(=O)c1ccc(C2c3c(n[nH]c3C)C(=O)N2c2ccc(C)cc2)cc1 (configuration not stated) | 3 | 13 | 4 | 5265 | 7.5 | 8 | -13 |
| 48 | COc1ccc(-c2noc(C3CCCN(C(=O)c4cccc(C)c4)C3)n2)cc1 (configuration not stated) | 7 | 9 | -1 | 4215 | 3.5 | 2 | -17 |
| 52 | O=C(Nc1ccccc1N1CCOCC1)C1=NN(c2ccccc2)C(=O)CC1 | 4 | 1 | . | 6595 | 0.8 | -2 | -28 |
